# Assay outcomes as filed in PubChem BioAssay.
# HCMV UL50-53 inh: inhibitors of HCMV UL50-UL53 interaction, biochemical, HTRF | HCMV UL50-UL53 nuclear egress complex (human cytomegalovirus) | normalized percent inhibition | inhibition, % (no concentration beside the values) | hit rate 0.15% among 190,000 | AID 1918969, 2023;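 active = both replicates at 50% or more, plus weaker picks with an unusually low signal ratio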;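 note: stock transfer was 100 nL into about 20 µL; 0% = negative control wells and 100% = wells with untagged competitor protein; inactives centre near -12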
# * hit, by the source's call; & = joins results of further samples.
SMILES,HCMV UL50-53 inh
c1ccc(-n2ncc3c(N4CCCCCC4)ncnc32)cc1,-8
COc1ccc(C(c2c(C)[nH]c3ccccc23)N2CCCC2)cc1 (configuration not stated),-3
Cc1ccc(C(=O)Cn2c3c(sc2=N)CCCC3)cc1,-2&0&-12&-12&-7
Cc1ccc(C(=O)Nc2cccc(C(F)(F)F)c2)cc1NC(=O)c1csc(-c2ccncc2)n1,-19
COCCN1C(=O)/C(=C2/C(=O)N(Cc3ccc(C)cc3)c3ccccc32)SC1=S,-8
Cc1cccc(OCC(O)CN2C(C)CCCC2C)c1 (configuration not stated),-7
COC(=O)Cn1c(CN2CCN(C(=O)c3ccco3)CC2)nc2c1c(=O)n(C)c(=O)n2C,5
C=CCc1cccc2cc(C(=O)NCCC3=CCCCC3)c(=O)oc12,-6
Cc1ccc(CNC(=O)c2oc3ccccc3c2-n2cccc2)cc1,-7
CN1C(=O)/C(=C\c2ccc(Cl)cc2)SC1=S,-10
COc1cccc(CCc2ccccc2OCC[C@@H]2C[C@@H](O)CN2C)c1,0
CCCCCCCCOc1ccccc1C(=O)Nc1ccc(C(=O)OCC[N+](C)(CC)CC)cc1,-12

# The list goes on; the last 2 above are carried over.
SMILES,HCMV UL50-53 inh
COc1cccc(CCc2ccccc2OCC[C@@H]2C[C@@H](O)CN2C)c1,0
CCCCCCCCOc1ccccc1C(=O)Nc1ccc(C(=O)OCC[N+](C)(CC)CC)cc1,-12
CCC(C)NC(=O)C1c2ccccc2C(=O)N1Cc1ccccc1OC (configuration not stated),-4
CC(C)(O)c1cc2nc(-c3cnc(N)nc3)nc(N3CCOCC3)c2s1,-5&-14&-11
c1cnc(N2CCN(Cc3c[nH]c4ccccc34)CC2)nc1,-5
CC(C)(Oc1ccc(Cl)cc1)C(=O)O,-2&5&-15
Cc1ccc2nc(NC(=O)CSc3nc4c(c(=O)n3-c3ccccc3)SCC4)sc2c1,-10
O=C(O)CCc1nc2ccccc2s1,-19
CC(=O)NS(=O)(=O)c1ccc(C)cc1,-18
CCOC(=O)c1csc(NC(=O)CC)n1,-4
C=CCN(CC=C)S(=O)(=O)c1ccc(C(=O)N=c2sc3ccccc3n2CC)cc1,8
O=C(O)C(Cc1ccccc1)N1C(=O)/C(=C/c2ccccc2)SC1=S (configuration not stated),-43
COc1ccc(OC)c(NC(=O)CSc2nccn2-c2ccc(Cl)cc2)c1,-13
O=C(CSc1nc2c(c(=O)n1-c1ccccc1)SCC2)N1CCCCC1,-15
Cc1nsc(NC(=O)N2CCN(c3ccccc3)CC2C)n1 (configuration not stated),4
COc1ccc(NC(=O)CC(NC(C)c2ccccc2)C(=O)O)cc1 (configuration not stated),5&0
CNC(=O)[C@H]1O[C@@H](n2cnc3c(NCc4cccc(I)c4)ncnc32)[C@H](O)[C@@H]1O,-12
CCOC(=O)[C@H](CCc1ccccc1)N[C@@H](C)C(=O)N1Cc2cc(OC)c(OC)cc2C[C@H]1C(=O)O,9
Cc1ccc(S(=O)(=O)n2c(N)nc3ccccc32)cc1,-3
OCCn1c(C(F)(F)F)nc2ccccc21,-5
Cc1cc(OCC(O)CN2CCN(c3ccccn3)CC2)ccc1Cl (configuration not stated),-10
O=C(O)CCCCC1SC[C@@H]2NC(=O)N[C@H]12 (some centres not stated),-5
O=C(O)CCC/C=C\C[C@@H]1[C@@H](/C=C/[C@@H](O)COc2cccc(Cl)c2)[C@H](O)C[C@@H]1O,4&-21&-21&3
N#Cc1cc2[nH]c(=O)c(=O)[nH]c2cc1[N+](=O)[O-],-128
COc1ccc(C2SCCN2S(C)(=O)=O)cc1Br (configuration not stated),-12
C=CCn1c(COc2cccc3ccc(C)nc23)nnc1SC,1
CC(C)Cc1cn(C2CCN(C(=O)CC3CCCCCC3)CC2)nn1,-16
Cc1ccc2c(c1)c1nc3ccccc3nc1n2CC(=O)O,-58&-30
N#CCCn1cc(C#N)c(-c2ccccc2)n1,-24
O=C(CCCN1C(=O)S/C(=C\C=C\c2ccccc2)C1=O)Nc1cccc(O)c1,-13
Nc1ncn([C@H]2C[C@H](O)[C@@H](CO)O2)c(=O)n1,-2
Cc1ccc(S(=O)(=O)Cc2nc(-c3ccc(C(=O)NCc4cccnc4)cc3)oc2C)cc1,-2
CCc1ncc(-c2cc(C(=O)N3CCC(C)(C)C3)c3ccc(F)cc3n2)cn1,0
CC(Sc1nc2ccccc2s1)C(=O)Nc1nnc(-c2ccccc2)s1 (configuration not stated),-11
CC(=O)CC(c1ccc([N+](=O)[O-])cc1)c1c(O)c2ccccc2oc1=O (configuration not stated),-54
Cc1nsc(NC(=O)N[C@@H]2CCCC[C@H]2c2ccccc2)n1,39&39
CCCn1c(C2CC(=O)N(c3ccccc3)C2)nc2ccccc21 (configuration not stated),-8
CN(C1CCS(=O)(=O)C1)S(=O)(=O)c1ccc(F)cc1 (configuration not stated),-13
Cc1ccc(-c2nc(N)s[n+]2-c2ccccc2)cc1,-8
CCCCC/C=C\C/C=C\CCCCCCCC(=O)OCC,-7&-7
Cc1cccc(NC(=O)C2COc3ccccc3O2)n1 (configuration not stated),0
CC(NC(=O)c1ccccc1-c1ccccc1C(=O)O)c1ccccc1 (configuration not stated),-7
Cc1ccccc1-c1noc(C2CC(C(C)C)=NO2)n1 (configuration not stated),-11
O=C(OCc1nc2ccccc2s1)c1ccc2c(c1)OCCO2,-12
CC(=O)Oc1ccc2c(=O)c(-c3ccccc3)coc2c1,-9
CCN1C(=O)/C(=C\C=C\c2ccccc2)SC1=S,-5
O=C(Nc1cccc2[nH]ncc12)c1ccco1,-3
CC(C)(CO)NC(=O)c1ccc(Cl)cc1Cl,-12
Cc1cc(C(=O)NNCc2ccccc2)no1,2
COc1ccc(-c2nc3ccccc3n2C(C)C)cc1OC,-2
Oc1c(C(c2ccccc2)N2CCCCC2)sc2ncnn12 (configuration not stated),0
O=C(CSc1ncnc2ccccc12)NC1CCCC1,-10
CN(C)Cc1cccc(N=C(c2ccccc2)c2c(O)[nH]c3cc(C(=O)N(C)C)ccc23)c1,-59
CCCC(=O)Nc1ncnc2c1ncn2[C@@H]1O[C@@H]2COP(=O)(O)O[C@H]2[C@H]1OC(=O)CCC,-9&6
NC(=O)c1ccccc1-n1ccnc1,-9
CCCn1c(-c2cccs2)nc2ccccc21,-2
COc1ccc(NC(=O)CSC2=NCCS2)cc1,-14
CO[C@@]1(NC(=O)C2SC(=C(C(N)=O)C(=O)O)S2)C(=O)N2C(C(=O)O)=C(CSc3nnnn3C)CS[C@@H]21 (some centres not stated),-7
Cc1nc2ccc(NC(=O)c3cccc(C(F)(F)F)c3)cc2o1,-2
CCn1cnc(NC(=O)N(C)CC2Cc3ccccc3O2)n1 (configuration not stated),49&49
COc1ccc(/C=C(/NC(=O)c2ccccc2)C(=O)N2CCCCC2)cc1,-6
CCOc1ccc(NC(=O)CCCN2C(=O)/C(=C/c3ccc(Cl)cc3)SC2=S)cc1,-12
# (continued)
SMILES,HCMV UL50-53 inh
CCN1C(=O)CC(c2ccccc2)N(C2CCCC2)c2nc(Nc3ccc(C(=O)NC4CCN(C)CC4)cc3OC)ncc21 (configuration not stated),-6
Cc1cc2cc(CNC(=O)CC3CCCCC3)ccc2n1C,-12
COCCNC(=O)COc1ccc(OCCNC[C@@H](O)COc2ccccc2)cc1,-9
COC(=O)Cc1ccc2c(c1)NC(=O)CO2,-11
O=C(O)C1CCCN(S(=O)(=O)c2cccs2)C1 (configuration not stated),-7
CCOC(=O)c1[nH]c(C)c(C(=O)Nc2cc(C)cc(C)c2)c1C,-18
CCCCCOc1ccc(-c2ccc(-c3ccc(C(=O)NC4CC(O)C(O)NC(=O)C5C(O)C(C)CN5C(=O)C(C(C)O)NC(=O)C(C(O)C(O)c5ccc(O)cc5)NC(=O)C5CC(O)CN5C(=O)C(C(C)O)NC4=O)cc3)cc2)cc1 (configuration not stated),-17
CCCCCCCCCCCCCCC[C@@H](O)[C@H](CO)NC(=O)CCCCCCC,-4
O=C(CSc1nnc(COc2ccccc2)o1)N1CCCCC1,11
CO[C@H]1/C=C/O[C@@]2(C)Oc3c(C)c(O)c4c(O)c(c(C=NN5CCN(C)CC5)c(O)c4c3C2=O)NC(=O)/C(C)=C\C=C\[C@H](C)[C@H](O)[C@@H](C)[C@@H](O)[C@@H](C)[C@H](OC(C)=O)[C@@H]1C,-158
Cc1ccc(Cn2cnc3ccccc32)cc1,-11
Cc1nsc(NC(=O)N2CCCN(c3ccc(F)cc3)CC2)n1,-18
N#Cc1ccccc1NC(=O)c1cc(=O)c2ccccc2o1,-26
CCCC(C)c1nc2c(cnn2C(C)C(C)C)[nH]1 (configuration not stated),8
CCC(=O)Nc1nnc(SCc2ccc(Br)cc2)s1,-3
Oc1c(C(Nc2nccs2)c2cccnc2)ccc2cccnc12 (configuration not stated),-16
O=C(CN1C(=O)CCC1=O)Nc1ccc2sccc2c1,-10
CC(C)CCNc1cc(C(=O)NCCCn2ccnc2)cc(S(=O)(=O)N2CCCC2)c1,0
O=C(Oc1ccc(Cl)c2cccnc12)N1CCCCC1,-28
COC(=O)C(NC(=O)c1cccs1)C12CC3CC(CC(C3)C1)C2 (configuration not stated),-24
Cc1ccc(S(=O)(=O)c2c(C)nn(C(C)(C)C)c2OC(=O)C(C)C)cc1,-1
Cc1oc2c(C)c(O)c(CN(C)C)cc2c(=O)c1-c1cnn(-c2ccccc2)c1,-6
Cc1cccc(NS(=O)(=O)c2ccc(-n3cccn3)cc2)c1,23
CCCCCCCCCCCCCCCCCCOC[C@@H](O)COP(=O)([O-])OCC[N+](C)(C)C,-16&-16

# Brought forward from above: 4 compounds, then new ones.
SMILES,HCMV UL50-53 inh
Cc1ccc(S(=O)(=O)c2c(C)nn(C(C)(C)C)c2OC(=O)C(C)C)cc1,-1
Cc1oc2c(C)c(O)c(CN(C)C)cc2c(=O)c1-c1cnn(-c2ccccc2)c1,-6
Cc1cccc(NS(=O)(=O)c2ccc(-n3cccn3)cc2)c1,23
CCCCCCCCCCCCCCCCCCOC[C@@H](O)COP(=O)([O-])OCC[N+](C)(C)C,-16&-16
CCCCC[C@H](O)/C=C/[C@@H]1[C@H]2C/C(=C/CCCC(=O)O)O[C@H]2C[C@H]1O,-16&-16&-14
COc1ccc(NC(=O)c2cc(=O)c3ccccc3o2)cc1,-29
CO[C@@H]1[C@@H](OC(N)=O)[C@@H](O)C(Oc2ccc3c(O)c(NC(=O)c4ccc(O)c(CC=C(C)C)c4)c(=O)oc3c2C)OC1(C)C (some centres not stated),-13
c1ccc2oc(C3=NCCN3)cc2c1,-8
COc1cc(CCC(O)c2ccc(C)cc2)cc(OC)c1OC (configuration not stated),-3
CCn1c(COc2ccccc2)nc2ccccc21,-16
COc1cc2c(cc1OC)[C@@H]1CC(=O)[C@@H](CC(C)C)CN1CC2,-9
NC(=O)/C=C/C(=O)Nc1ccccc1,-14
Cc1cc(NC(=O)c2cc(=O)c3ccccc3o2)no1,-52
COC(=O)NC1Sc2ccccc2N=C1c1ccccc1 (configuration not stated),-30
CCNC(=O)CCC/C=C\C[C@@H]1[C@@H](CC[C@@H](O)CCc2ccccc2)[C@H](O)C[C@@H]1O,-25&-25
CCOc1ccc2c(=O)c(-c3ccccc3)coc2c1,-16

# The last six entries of the part before open the next one:
SMILES,HCMV UL50-53 inh
COc1cc2c(cc1OC)[C@@H]1CC(=O)[C@@H](CC(C)C)CN1CC2,-9
NC(=O)/C=C/C(=O)Nc1ccccc1,-14
Cc1cc(NC(=O)c2cc(=O)c3ccccc3o2)no1,-52
COC(=O)NC1Sc2ccccc2N=C1c1ccccc1 (configuration not stated),-30
CCNC(=O)CCC/C=C\C[C@@H]1[C@@H](CC[C@@H](O)CCc2ccccc2)[C@H](O)C[C@@H]1O,-25&-25
CCOc1ccc2c(=O)c(-c3ccccc3)coc2c1,-16
COc1ccc(-n2c(SC)nnc2-c2c[nH]c3ccccc23)cc1,-18
COc1ccc(S(=O)(=O)n2ccnc2C)cc1,-17
CC1(c2ccccc2)OC(C(=O)O)=CC1=O (configuration not stated),-13
OCCCc1nc2ccccc2n1CCCOc1ccccc1,-8
CCN(C(=O)c1cc(-c2cnc(C3CC3)nc2)nc2cc(C)ccc12)C(C)C,-3
CCCn1c(CCCNC(=O)Cc2ccccc2)nc2ccccc21,5
O=C(CC(c1ccccc1)C1CCCCC1=O)c1ccccc1 (configuration not stated),-19
CC(C)OCCNC1CCc2c(c(C(=O)N(C)Cc3ccccc3)nn2C)C1 (configuration not stated),-8
CC(C)Sc1nnc(NC(=O)c2cccs2)s1,6
Cc1ccc(-c2cc(C(=O)N3CCSCC3)cc(S(=O)(=O)N3CCOCC3)c2)s1,-6
OC(CN1CCN(c2cccc(Cl)c2)CC1)C(c1ccccc1)c1ccccc1 (configuration not stated),4&8
CC(=O)Nc1ccc(NC(=O)Oc2ccccc2)cc1,0
O=C(O)CCc1nc2ccccc2[nH]1,-3&-26
O=C(Nc1nccs1)c1cc(Cl)sc1Cl,-19
Oc1c(CN2CCc3ccccc3C2)cc(Cl)c2cccnc12,-14

# 7 records drawn at random from the list so far:
SMILES,HCMV UL50-53 inh
Cc1ccc(-c2cc(C(=O)N3CCSCC3)cc(S(=O)(=O)N3CCOCC3)c2)s1,-6
OCCCc1nc2ccccc2n1CCCOc1ccccc1,-8
COc1ccc(-n2c(SC)nnc2-c2c[nH]c3ccccc23)cc1,-18
CC(=O)Nc1ccc(NC(=O)Oc2ccccc2)cc1,0
O=C(CC(c1ccccc1)C1CCCCC1=O)c1ccccc1 (configuration not stated),-19
CC(C)OCCNC1CCc2c(c(C(=O)N(C)Cc3ccccc3)nn2C)C1 (configuration not stated),-8
CC1(c2ccccc2)OC(C(=O)O)=CC1=O (configuration not stated),-13

# Some of the compounds tested (hit frequency here may not be typical).
